VACV mCherry inh: vaccinia inhibition (mCherry reporter) | Vaccinia virus mCherry reporter infection, fluorescence; about a quarter of the inactives have no number | Potency, µM (highest dose often 36.5 µM), for the others: at the highest dose activity change, negative = inhibition, most hits filed as inhibitors | hit rate 0.63% among 310,000 | AID 720579; active = well fitted inhibition curve with a large enough effect; inconclusive = small, poorly fitted or top-dose-only effect; inactive = no such curve, though single readings can be large or run the other way; tested in A549 cells; also: nearly all actives have a fitted effect of over 35% in size; inactives centre near -10
Vaccinia Venus: vaccinia inhibition (Venus reporter) | hit rate 0.46% among 330,000 | Potency, µM (series often up to 36.5 µM), without a hit: at the top dose activity change, negative = inhibition, hits mostly inhibitors | Vaccinia virus Venus reporter expression, fluorescence | AID 720580; active means well fitted inhibition curve with a large enough effect; inconclusive means small, poorly fitted or top-dose-only effect; inactive means no such curve, though single readings can be large or run the other way; tested in A549 cells; also: nearly all actives have a fitted effect of over 30% in size; inactives centre near -10
* marks the source's active call; other numbers are inactive results; i = inactive; ? = inconclusive; / = not tested or not shown; & = joins results of further samples; [ ] = dose if it differs, or a comment. % is scaled to controls: 0 for no effect and ±100 for the full control effect; potency is read from the fitted curve at half-maximal effect.

SMILES | VACV mCherry inh | Vaccinia Venus
O=C(CSc1nnc(-c2ccco2)n1-c1ccccc1)N1CCOCC1 | -18.6% | -8.3%
O=C(NCc1ccc2c(c1)OCO2)c1ccc(=O)[nH]c1 | / | 17.5%
Cc1ccc(S(=O)(=O)N(C)CCCC(=O)Nc2ccc(C)cc2C)cc1 | ? | -29.6%
Cc1ccc(-n2c3c(c(O)c(-c4ccccc4)c2=O)C(=O)CC(C)(C)C3)cc1 | i | -15.5%
CCOC(=O)N1CCN(CC(=O)Nc2cc3c(cc2C(C)=O)OCO3)CC1 | 0.8% | 10.1%
CC(=O)Oc1ccc2c(=O)c(Oc3ccccc3[N+](=O)[O-])coc2c1 | -15.9% | 0.5%
CCOC(=O)c1nc(N)c(C(=O)OCC)[nH]1 | -1.9% | -4.0%
CC(C)c1ccc(C(=O)COC(=O)C(O)c2ccccc2)cc1 (configuration not stated) | i | -12.6%
CCOC(=O)c1c(NC(=S)Nc2ccccc2)sc2c1CC(C)(C)SC2 | i | 17.1%
COc1cccc(N(CC(=O)N/N=C(\C)c2cccs2)S(C)(=O)=O)c1 | -14.2% | 0.5%
Cc1cc(C)n(CC(O)CN(c2ccccc2)S(=O)(=O)c2ccc3ccccc3c2)n1 (configuration not stated) | -23.4% | -10.4%
CN(C)c1ccc(NC(=S)Nc2ccc3c(c2)c(=O)n(C)n3-c2ccc(C(C)(C)C)cc2)cc1 | -3.4% | -15.2%
COc1ccccc1NC(=O)CSc1nnnn1Cc1ccccc1 | -9.5% | -6.5%
O=C(Cc1ccc(F)cc1)NCCc1csc(-c2cccc(F)c2)n1 | -15.9% | 4.6%
CCOc1ccc(CNC(=O)CCn2nc(C)c3c(C)n(-c4ccccc4)nc3c2=O)cc1 | i | -6.8%
COc1ccc(C(=O)N2CC(=O)Nc3ccc(F)cc3C2c2ccccc2)cc1 (configuration not stated) | -0.7% | -20.5%
Cc1ccc(C)n1-c1ccc(-c2ccnc(N)n2)cc1 | -25.7% | -12.8%
C=CCON/C(CCC)=C1\C(=O)C(C(=O)OC)C(C)(C)CC1=NC (configuration not stated) | -1.8% | 6.3%
O=S(=O)(c1ccc2ccccc2c1)N1CCN(C(=S)Nc2ccc(F)cc2)CC1 | -22.7% | ?
C[C@H](CO)N1C[C@H](C)[C@@H](CN(C)S(=O)(=O)c2cccs2)Oc2c(NS(=O)(=O)c3cn(C)cn3)cccc2C1=O | i | -9.4%
COc1ccc(CNC(=O)CCc2nc3cccnc3n2Cc2ccccc2)cc1 | -12.1% | -8.7%
CCc1ccccc1NC(=O)C1(S(=O)(=O)c2ccc(C)cc2)CC1 | -3.6% | 9.7%
O=S1(=O)CCOC[C@H](c2ccccc2)N1Cc1ccccc1F | -27.9%&-14.8% | -16.7%&-16.6%
CN(C)c1ccc(/C=C/c2ccnc3cc(Cl)cc(Cl)c23)cc1 | -11.4% | 95.2%[activator]
COc1ccccc1Oc1c(C)oc2c(CN3CCN(CCO)CC3)c(O)ccc2c1=O | / | -0.6%
Next part
SMILES | VACV mCherry inh | Vaccinia Venus
O=S(=O)(NC1CCCCC1N1CCOCC1)c1ccc(Cl)cc1 (configuration not stated) | -16.8% | -12.8%
CC(=O)c1cc(-c2ccccc2)n(CCC(=O)NC2CCCCCC2)c1C | -1.9% | -8.1%
COc1cc(O)c2c(=O)c(-c3ccc(O[C@@H]4O[C@H](CO)[C@@H](O)[C@H](O)[C@H]4O)cc3)coc2c1 | ? | -23.1%
Clc1ccc(Nc2ccc(Cl)nn2)cc1 | 2.4% | -7.7%
Cc1nc([N+](=O)[O-])nn1C12CC3CC(CC(Cl)(C3)C1)C2 | i | -2.9%
Cc1ccc(Cl)cc1NC(=O)c1cc(S(=O)(=O)N2CCCCCC2)cn1C | -6.5% | -6.5%
O=C(c1ccc2ccccc2c1)N1CCc2ccccc21 | 7.4% | -12.0%
CCc1ccc(OCC(=O)Nc2ccncc2)c(Br)c1 | -11.5% | -16.4%
O=C1C=CN2CCCC2CC1 (configuration not stated) | -15.8% | -8.9%
O=C(NNc1cc(Cl)cc(Cl)c1)c1cccs1 | -20.3% | -12.4%
CCOC(=O)[C@]12CCC=C1N(Cc1ccccc1)C(=O)[C@H](CC(=O)NCCc1ccccc1OC)C2 | ? | -18.6%
COc1ccc(C2/C=C\CN(CC(C)(C)C)CC(=O)N2Cc2ccc(F)cc2)cc1 (configuration not stated) | -25.4% | -9.7%
O=C(N1CCOCC1)N1CCC(NC(=O)C23CC4CC(CC(C4)C2)C3)CC1 | -4.1% | -2.7%
CCC(NC(=O)OCc1ccccc1)C(=O)Oc1ccc2ccc(=O)oc2c1 (configuration not stated) | i | -15.2%
O=C([C@H]1O[C@@H](n2ccc(=O)[nH]c2=O)[C@H](O)[C@@H]1O)N1CCN(Cc2ccccn2)CC1 | i | 5.3%
C[C@H](CO)N1C[C@H](C)[C@@H](CN(C)S(=O)(=O)c2ccc(F)cc2)Oc2ccc(NC(=O)c3ccncc3)cc2C1=O | i | -8.5%
CCC(C)(C)n1nnnc1C(c1ccccc1F)N1CCC(C(N)=O)CC1 (configuration not stated) | -15.9% | -13.1%
COC(=O)Nc1ccc(OC)c(OC)c1 | -14.3% | -5.0%
Cc1nc([N+](=O)[O-])c(C(=O)OCc2ccccc2F)n1C | -3.4% | 1.8%
CC1CCN(C(=O)C2CCN(S(=O)(=O)N3CCC4(CC3)OCCO4)CC2)CC1 | -18.4% | -22.6%
CCOC(=O)C1CCN(Cc2cc(C(C)(C)C)c(O)c(C(C)(C)C)c2)CC1 | ? | -17.2%
COc1cc(CN(C(=O)c2ccc(OC(C)C)cc2)C2CCS(=O)(=O)C2)cc(OC)c1OC (configuration not stated) | -3.2% | -10.0%
Cc1ccccc1-n1c(-c2ccncc2)n[nH]c1=S | -18.4% | -1.0%
COC(=O)c1cc(=O)n(Cc2ccco2)c(=Nc2ccc(F)c(Cl)c2)s1 | ? | ?
Cc1coc2cc3oc(=O)c(CC(=O)NCc4cccc(Cl)c4)c(C)c3cc12 | -6.5% | -8.0%
Further compounds
SMILES | VACV mCherry inh | Vaccinia Venus
CCN(c1ccccc1)S(=O)(=O)c1ccc(Oc2ccc([N+](=O)[O-])cc2)nc1 | -15.4% | -6.5%
Nc1cc(=O)[nH]c(SCC(=O)NCC2CCCO2)n1 (configuration not stated) | -13.7% | -14.9%
Cc1ccc2sc(C)[n+](CCCS(=O)(=O)[O-])c2c1 | i | -10.4%
Cc1c(NC(=S)NCc2ccc(F)cc2)cccc1[N+](=O)[O-] | i | -10.5%
Cc1cc(Cl)ccc1NC(=O)CSc1n[nH]c(N)n1 | -18.8% | -9.6%
COc1ccc(CC2(CO)COc3ccccc3C2=O)cc1 (configuration not stated) | -14.4% | ?
CCN1CCN(CCCNC(=O)CCC(=O)N2CCOc3ccc(Cl)cc32)CC1 | -21.8% | -2.4%
CN1C(=O)[C@H]2[C@@H](c3ccc(C(F)(F)F)cc3)N[C@]3(CCCN(Cc4ccc(F)cc4)C3=O)[C@H]2C1=O | -29.7% | ?
Cc1cccc(NC(=O)C(C)N2CC=C(c3ccccc3)CC2)c1 (configuration not stated) | ? | -8.7%
c1ccc(N2CCN(c3cnccn3)CC2)nc1 | -14.5% | ?
Nc1nonc1-n1nnc(C(=O)N/N=C/c2cccc(Cl)c2)c1CN1CCCC1 | 1.3% | -3.8%
Cc1ccc2[nH]c(-c3ccccc3)c(CN3CCN(C)CC3)c(=O)c2c1 | -13.4% | -13.5%
COc1ccc(-n2c(=O)[nH]c3cc(C(=O)NCCc4ccccc4)ccc3c2=O)cc1OC | -2.3% | 3.9%
CC(C)CNC(=O)c1cccc(C(=O)NCC(C)C)c1 | 1.0% | -6.6%
CCc1ccc(NC(=O)Cn2c(=O)n(-c3ccc(OC)cc3)c(=O)c3ccc(C(=O)NCc4ccc(C)cc4)cc32)cc1 | ? | ?
C/C(=N\Nc1ccc(C(F)(F)F)cn1)c1ccncc1 | -1.5% | -16.7%
CCC(C)NC(=O)COC(=O)c1cc([N+](=O)[O-])ccc1Sc1nc(C)cs1 (configuration not stated) | / | ?
CCCN(CCC)C(=O)C1CCN(c2ncnc3c2nc2n3CCCCC2)CC1 | -0.7% | -16.6%
Cc1ccc([N+](=O)[O-])cc1NC(=O)C(C)NS(=O)(=O)c1ccc(F)cc1 (configuration not stated) | -1.8% | -5.7%
CCCc1cc(=O)[nH]c2nnc(SCCC(C)C)n12 | i | -6.6%
Nc1c(C(=O)N2CCOCC2)sc2nc3c(cc12)CCC3 | -9.4% | -11.6%
C[C@@H]1CN([C@@H](C)CO)C(=O)c2cc(NS(=O)(=O)c3cccs3)ccc2O[C@H]1CN(C)Cc1ccc(C(F)(F)F)cc1 | ? | ?
Cc1noc(C)c1S(=O)(=O)N1CCC(C(=O)NCCCN2CC(C)CC(C)C2)CC1 (configuration not stated) | i | 0.4%
Cc1cccc(/C(N)=N/OC(=O)c2ccco2)c1 | / | 0.2%
CN1CCN(C(=O)c2cc(COc3c(F)cccc3F)on2)CC1c1ccccc1 (configuration not stated) | -19.1% | -12.7%

One compound at a time (already shown):
Results for `CCN(c1ccccc1)S(=O)(=O)c1ccc(Oc2ccc([N+](=O)[O-])cc2)nc1` = VACV mCherry inh: -15.4%; Vaccinia Venus: -6.5%
Results for `Nc1cc(=O)[nH]c(SCC(=O)NCC2CCCO2)n1` (configuration not stated) = VACV mCherry inh: -13.7%; Vaccinia Venus: -14.9%

The list continues.
SMILES | VACV mCherry inh | Vaccinia Venus
S=C(NCc1ccccn1)Nc1ccc(Cl)cc1 | / | -15.4%
O=C(CSc1ncnc2nc[nH]c12)c1ccc2ccccc2c1 | / | ?
CC(=O)C[C@H]1SC[C@@H](C(C)C)N1S(=O)(=O)c1ccc(C)cc1 | -18.7% | -16.1%
CCOc1ccc(C(=O)NCc2nnnn2-c2ccc(C)c(C)c2)cc1OCC | -15.9% | -16.9%
NNC(=S)NC1CCS(=O)(=O)C1 (configuration not stated) | i | -14.6%
COc1ccc2c(c1)CC[C@@H]1[C@@H]2CC[C@]2(C)[C@@H](C(C)=O)C[C@@H]12 | i | -26.4%
COc1cc(OC)c(N(C)C(=O)Cn2ncc3c(=O)oc4ccccc4c32)cc1Cl | -3.8% | 3.2%
COc1ccc(-c2csc(NC(=O)c3ccc(S(C)(=O)=O)cc3)n2)cc1 | ? | -10.1%
COc1ccccc1CCNC(=O)CSc1nnc2ccc(-c3ccncc3)nn12 | i | 0.0%
COc1ccccc1CN1CCC(n2cc(C(=O)N3CCCCC3)nn2)CC1 | -15.1% | -11.1%
Cc1cccc(NC(=O)Cn2nnc(C(=O)NCc3ccco3)c2N)c1 | -4.6% | -6.8%
Cc1cc2c(cc1C)N[C@]1(C[C@H]3CCCC(=O)N4CC[C@@H](C1)[C@@H]34)C(=NC1CCCCC1)N2 | -15.8% | -13.0%
O=C(CSc1ncn[nH]1)c1cccc([N+](=O)[O-])c1 | -5.2% | -5.2%

Entries above containing a Cl atom:
SMILES | VACV mCherry inh | Vaccinia Venus
CN(C)c1ccc(/C=C/c2ccnc3cc(Cl)cc(Cl)c23)cc1 | -11.4% | 95.2%[activator]
O=S(=O)(NC1CCCCC1N1CCOCC1)c1ccc(Cl)cc1 (configuration not stated) | -16.8% | -12.8%
Clc1ccc(Nc2ccc(Cl)nn2)cc1 | 2.4% | -7.7%
Cc1nc([N+](=O)[O-])nn1C12CC3CC(CC(Cl)(C3)C1)C2 | i | -2.9%
Cc1ccc(Cl)cc1NC(=O)c1cc(S(=O)(=O)N2CCCCCC2)cn1C | -6.5% | -6.5%
O=C(NNc1cc(Cl)cc(Cl)c1)c1cccs1 | -20.3% | -12.4%
COC(=O)c1cc(=O)n(Cc2ccco2)c(=Nc2ccc(F)c(Cl)c2)s1 | ? | ?
Cc1coc2cc3oc(=O)c(CC(=O)NCc4cccc(Cl)c4)c(C)c3cc12 | -6.5% | -8.0%
Cc1cc(Cl)ccc1NC(=O)CSc1n[nH]c(N)n1 | -18.8% | -9.6%
CCN1CCN(CCCNC(=O)CCC(=O)N2CCOc3ccc(Cl)cc32)CC1 | -21.8% | -2.4%
Nc1nonc1-n1nnc(C(=O)N/N=C/c2cccc(Cl)c2)c1CN1CCCC1 | 1.3% | -3.8%
S=C(NCc1ccccn1)Nc1ccc(Cl)cc1 | / | -15.4%
COc1cc(OC)c(N(C)C(=O)Cn2ncc3c(=O)oc4ccccc4c32)cc1Cl | -3.8% | 3.2%

No enrichment for hits; about 0.82% have a hit in one of these screens.
